Screening results (PubChem BioAssay)
Sa RN4220 lethal = S. aureus RN4220 growth inhibition; inhibition, % (no concentration beside the values); OD600, 16 h; 330,000 tested, 0.33% active;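 active = z-score of -3 or lower and OD600 up to 0.18 on both plates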;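 note: plate controls were untreated cells for no effect and reference antibiotic for full effect; stock transfer was 100 nL into about 80 µL; one replicate is shown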
BJeLR lethal = kills HRASV12-expressing BJeLR cells; 300,000 tested, 0.17% active; BJeLR (HRASV12) viability, CellTiter-Glo ATP luminescence, 48 h; reference of the scale not given here; inhibition, % (concentration not given with the values); AID 1554;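 active = replicate mean above 50%; inconclusive = above 50% but judged a plate artefact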;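 note: 50 nL library stock added to about 25 µL; numbers are from one replicate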
PrP 5UTR inh = inhibition of PrP 5' UTR reporter expression; AID 488862; inhibition, % (test concentration not listed); cell-based PrP 5' UTR mRNA reporter, plate reader; 340,000 tested, 0.35% active;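 active = every replicate at 50% or more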;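 note: 0 = median of the neutral control wells; tested in H4 reporter cells; numbers are from one replicate; inactives centre near -14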
Sa ugtP lethal = compounds lethal to S. aureus RN4220 ugtP deletion mutant; OD600 growth, 16 h; some inactives read as strong as hits; growth inhibition, % (concentration not given with the values); 330,000 tested, 0.54% active;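 active = z-score under -3 and OD600 up to 0.15 on both plates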;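 note: plate controls were untreated wells for no effect and antibiotic for full effect; wells of about 80 µL received 100 nL stock; the first replicate is given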
Autofluor counter = counter-screen for toxin protease inhibitors: compound fluorescence | fluorescence intensity (no concentration beside the values) | 360,000 tested, 3.1% active | AID 624483 | compound autofluorescence counterscreen, microsphere flow cytometry; hits give high values;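 active = at least 3 SD above the mean of all compounds, about 16000 in these data; inconclusive = too few beads counted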;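 note: 100 nL of 1 mM stock went into each well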
Mtb hypoxia inh = inhibitors of hypoxia-regulated fluorescent reporter in Mycobacterium tuberculosis; M. tuberculosis hypoxia-regulated fluorescent reporter, fluorescence; fluorescence inhibition, % (concentration not given with the values); 300,000 tested, 0.1% active; AID 1159583;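 active = 35 to 45% if threefold the growth effect, above 45% if 1.5-fold the growth effect; inactive = the rest, general growth blockers included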;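 note: wells of about 50 µL received 100 nL stock; 0% = vehicle wells and 100% = reference inhibitor wells; whole bacteria with a GFP reporter of the hypoxia response; strong numbers were not always called active; many hits fall short of the cut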
Mtb hypoxia inh growth = recorded beside Mtb hypoxia inh, whose call it bears; growth inhibition, %; measured here: M. tuberculosis growth (absorbance);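 0% = vehicle and 100% = reference antibiotic; read after six days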
* marks the source's active call; other numbers are inactive results; ? = inconclusive; / = not tested or not shown.

SMILES	Sa RN4220 lethal	BJeLR lethal	PrP 5UTR inh	Sa ugtP lethal	Autofluor counter	Mtb hypoxia inh	Mtb hypoxia inh growth
COc1ccc(C[C@H]2CN3C(=NC[C@@H]3Cc3ccc(O)cc3)N2C[C@H](C)NC(=O)c2ccc(C)c(Br)c2)cc1	/	15.1	-15.1	/	3127	/	/
CC1CCN(C(C(=O)Nc2ccc(C(C)C)cc2)c2ccc3c(c2)OCO3)CC1 (centres undefined)	-4.7	-5.2	4.0	3.5	5918	1.0	2.8
COc1ccc(C(CNC(=O)c2[nH]c(C)c(C(C)=O)c2C)N2CCOCC2)cc1 (centres undefined)	0.2	/	-4.6	2.0	?	-6.6	1.1
CC(=O)c1ccc(Oc2nc(-c3cccnc3)nc3ccccc23)cc1	3.9	2.6	-4.2	-10.2	5278	6.2	3.4
Cc1cccc(OCc2nc(C)cc(=O)[nH]2)c1	-1.4	-8.9	-6.2	4.2	2651	/	/
CCN(C(=O)COC(=O)c1cc(C)oc1C)c1c(N)n(Cc2ccccc2)c(=O)[nH]c1=O	1.4	/	-20.9	3.3	6014	3.8	4.2
O=C(c1ccccc1-c1nc2ccccc2[nH]1)N1CCCCC1	1.7	/	-22.9	-1.3	4746	/	/
C=CCC(NCc1ccco1)c1ccc(OC)c(OC)c1 (centres undefined)	4.1	-3.7	-15.3	9.4	3174	4.9	7.3
CC(=O)Cc1nsc(NC(=O)c2ccc(-c3cccc(Cl)c3)o2)n1	6.2	2.9	-17.6	10.6	3394	6.0	8.9
N#Cc1ccc(CON=Cc2ccccc2)cc1	6.9	/	/	-2.7	/	13.1	-2.5
COc1ccc(-c2c(C#Cc3ccsc3)c3cc(-c4ccc(OC)c(F)c4)ccc3n2C)cc1	-12.6	/	-44.4	-4.4	3579	5.7	-0.9
CC(=O)c1cccc(-n2c(CCC(=O)O)ccc2-c2ccc(C)cc2)c1	2.5	0.6	12.0	-3.5	4115	11.9	-0.1
Cc1ccc(S(=O)(=O)NC(=O)Nc2nc(-c3ccc(F)c(F)c3)cs2)cc1	4.4	-2.5	-16.2	-1.9	3895	-6.0	2.1
CN(C)c1cccc(NC(=O)CCc2ccccc2)c1	4.7	0.4	-9.7	9.0	7865	/	/
COCC(=O)Nc1ccc(Br)c(C)c1	8.5	2.1	52.4	4.1	4127	14.4	13.1
COc1ccccc1NC(=O)CSc1nc2nccnc2c(=O)n1Cc1cccs1	5.3	-4.8	-12.0	2.5	5485	-2.3	-1.8
COc1ccccc1N1CCN(C(=O)CCCn2nc(C)c([N+](=O)[O-])c2C)CC1	3.7	1.2	-12.8	6.1	4713	1.8	1.6
Cc1cc(C)nc(SCc2nnc(SCC(=O)Nc3nccs3)n2Cc2ccco2)n1	4.3	-4.6	-12.1	-10.1	8448	16.7	11.1
Cc1cccc(N(C(=O)c2csnn2)C(C(=O)NC(C)(C)C)c2cccs2)c1 (centres undefined)	4.5	12.5	-18.4	4.9	8444	2.8	-5.3
COC(=O)c1cc(COC(=O)c2nc3nccc(C)n3n2)oc1C	-0.8	-5.9	-42.6	0.2	4821	-2.4	0.6

A draw from above in order of molar mass, rising.
SMILES	Sa RN4220 lethal	BJeLR lethal	PrP 5UTR inh	Sa ugtP lethal	Autofluor counter	Mtb hypoxia inh	Mtb hypoxia inh growth
Cc1cccc(OCc2nc(C)cc(=O)[nH]2)c1	-1.4	-8.9	-6.2	4.2	2651	/	/
N#Cc1ccc(CON=Cc2ccccc2)cc1	6.9	/	/	-2.7	/	13.1	-2.5
COCC(=O)Nc1ccc(Br)c(C)c1	8.5	2.1	52.4	4.1	4127	14.4	13.1
CN(C)c1cccc(NC(=O)CCc2ccccc2)c1	4.7	0.4	-9.7	9.0	7865	/	/
C=CCC(NCc1ccco1)c1ccc(OC)c(OC)c1 (centres undefined)	4.1	-3.7	-15.3	9.4	3174	4.9	7.3
COC(=O)c1cc(COC(=O)c2nc3nccc(C)n3n2)oc1C	-0.8	-5.9	-42.6	0.2	4821	-2.4	0.6
CC(=O)c1ccc(Oc2nc(-c3cccnc3)nc3ccccc23)cc1	3.9	2.6	-4.2	-10.2	5278	6.2	3.4
CC(=O)c1cccc(-n2c(CCC(=O)O)ccc2-c2ccc(C)cc2)c1	2.5	0.6	12.0	-3.5	4115	11.9	-0.1
CC(=O)Cc1nsc(NC(=O)c2ccc(-c3cccc(Cl)c3)o2)n1	6.2	2.9	-17.6	10.6	3394	6.0	8.9
CC1CCN(C(C(=O)Nc2ccc(C(C)C)cc2)c2ccc3c(c2)OCO3)CC1 (centres undefined)	-4.7	-5.2	4.0	3.5	5918	1.0	2.8
COc1ccc(C(CNC(=O)c2[nH]c(C)c(C(C)=O)c2C)N2CCOCC2)cc1 (centres undefined)	0.2	/	-4.6	2.0	?	-6.6	1.1
COc1ccccc1N1CCN(C(=O)CCCn2nc(C)c([N+](=O)[O-])c2C)CC1	3.7	1.2	-12.8	6.1	4713	1.8	1.6
Cc1ccc(S(=O)(=O)NC(=O)Nc2nc(-c3ccc(F)c(F)c3)cs2)cc1	4.4	-2.5	-16.2	-1.9	3895	-6.0	2.1
Cc1cccc(N(C(=O)c2csnn2)C(C(=O)NC(C)(C)C)c2cccs2)c1 (centres undefined)	4.5	12.5	-18.4	4.9	8444	2.8	-5.3
CCN(C(=O)COC(=O)c1cc(C)oc1C)c1c(N)n(Cc2ccccc2)c(=O)[nH]c1=O	1.4	/	-20.9	3.3	6014	3.8	4.2
Cc1cc(C)nc(SCc2nnc(SCC(=O)Nc3nccs3)n2Cc2ccco2)n1	4.3	-4.6	-12.1	-10.1	8448	16.7	11.1

Next part
SMILES	Sa RN4220 lethal	BJeLR lethal	PrP 5UTR inh	Sa ugtP lethal	Autofluor counter	Mtb hypoxia inh	Mtb hypoxia inh growth
C=CCn1c(SC)nnc1-c1ccc2ncccc2c1	2.1	1.2	-15.5	3.2	3586	3.5	12.4
CC(C)N(Cc1cn(C)nc1-c1cccc(Cl)c1)Cc1nccn1C	5.6	4.4	-14.2	4.4	2323	6.1	8.0
Cc1c(Cl)cccc1NC(=O)CN1CCC(NC(=O)C2CCCCC2)CC1	5.5	-1.7	-20.4	9.8	7919	6.5	4.6
CCn1nnnc1-c1ccc(OC)c(S(=O)(=O)NCCc2ccccc2)c1	9.0	0.8	-20.9	-1.5	19509*	3.7	10.1
Cc1ccccc1C(=O)NC(NC(=S)Nc1ccc(S(N)(=O)=O)cc1)C(Cl)(Cl)Cl (centres undefined)	12.6	19.4	-7.4	4.1	2084	8.8	4.2
O=C(Nc1ccc(NC(=O)C2CCCCC2)nc1)c1cccc(F)c1	-2.8	-1.0	-21.2	4.5	3879	1.9	-1.3
COC(=O)C(C)Oc1ccc(-c2nccc(-c3ccccn3)n2)cc1 (centres undefined)	2.6	-0.8	/	11.1	4105	-3.8	9.4
CC(NC(=O)c1cc2c(s1)CS(=O)(=O)C2)c1ccccc1 (centres undefined)	-3.2	-7.7	-0.2	-12.2	5297	-7.4	5.4
CN(CC(=O)Nc1ccc(Cl)cc1)CC(=O)Nc1ccc(C(N)=O)cc1	6.1	-3.7	-23.2	-1.6	4771	9.9	7.2
CC(C(N)=O)N1C(=O)c2cccc3cccc1c23 (centres undefined)	1.7	5.9	-27.7	5.6	23424*	5.0	4.1
O=C(NCCN1CCOCC1)c1ccc(Cl)c(Cl)c1	1.3	-1.6	-38.2	6.1	3629	-0.6	0.0
CCCc1ccc(S(=O)(=O)N/N=C(/C)c2ccc3c(c2)OCO3)cc1	/	-3.1	-23.5	/	5304	/	/
COCCn1nnnc1CN(CCc1ccccc1)Cc1cc2ccc(C)cc2[nH]c1=O	-3.5	-5.4	-6.9	-3.4	2866	13.9	14.6
CCOc1cc(C(=O)CCC(=O)OCC(=O)Nc2ccc(C)c(S(=O)(=O)N(C)C)c2)ccc1O	4.3	-18.7	-32.4	4.4	4111	10.4	0.2
CCOC(=O)CCSc1nnc(-c2cccnc2)n1-c1ccccc1OC	7.5	0.3	-13.2	10.9	4575	16.6	6.4
Cc1occc1C(=O)Nc1cc(=O)n(C)c(=O)n1C	2.2	2.6	6.6	0.6	3123	-5.1	-0.4
COc1ccc(N(C)C(=O)CC2(CC(=O)O)CCCCC2)cc1	7.3	15.2	-13.2	-4.4	2476	14.5	11.9
N#Cc1cc2c(nc1SCC(=O)Nc1sc3c(c1C#N)CCC3)CCCCC2	3.1	-1.0	-39.9	-6.3	10127	9.5	8.6
COc1cc2[nH]c(=S)nc(NCc3cccnc3)c2cc1OC	2.3	5.2	-5.3	5.0	3799	2.3	0.8
CC(=O)N/C(=C\c1ccc(Cl)cc1)C(=O)O	3.2	-5.5	/	11.0	4238	3.3	5.9
COc1ccc(CNC(=O)Cn2cc([N+](=O)[O-])cn2)cc1	-1.2	4.3	-1.6	7.3	3283	6.7	-1.5
CC(C)CCC(=O)N1CCC(N2CCC(C(=O)NCc3ccccn3)CC2)CC1	2.4	-4.3	-0.2	5.8	5231	7.3	-2.3
COCCNc1oc(-c2ccccc2Cl)nc1S(=O)(=O)c1ccc(C)cc1	0.9	/	-29.8	2.2	4112	13.2	7.0
CCN1C(=O)C(CC(=O)Nc2ccc(OC)cc2)N(CCN2CCOCC2)C1=S (centres undefined)	2.4	2.5	-7.0	3.5	3888	3.6	12.1
CCCCC(=O)C1C(=O)NC(=O)NC1=O	2.2	7.3	-18.6	5.0	19202*	-0.6	0.9
CC(C)c1nc(SCC(=O)Nc2ccc(C(=O)O)cc2)c2c3c(sc2n1)CCCC3	10.2	-9.9	-9.9	9.4	4701	-5.1	-0.4
Cc1ccc(N(CC(=O)NCc2ccccc2)C(=O)CCC(=O)Nc2ccccn2)cc1	4.1	-3.6	-14.9	1.2	3200	19.0	-0.3
Cc1ccccc1-c1ccc(C(=O)Nc2cccc(F)c2)o1	14.2	1.4	-27.0	-20.4	3067	0.6	3.1
Cc1cc(OCCN2CC(C)OC(C)C2)ccc1[N+](=O)[O-] (centres undefined)	5.6	-4.2	/	9.1	10790	-0.3	0.5
CC(=O)N1CCc2cc(S(=O)(=O)NCCN3CCC(C)CC3)ccc21	1.5	0.1	-10.8	1.7	5021	/	/
S=C(c1ccccc1)N1CCN(c2ccccc2)CC1	4.9	/	-23.2	5.6	3925	15.0	17.7
CC1(C)CC(C(=O)Nc2ccccc2)C(=O)O1 (centres undefined)	1.8	-14.9	-8.2	4.2	3083	7.1	4.5
CN(C)c1nc(N)nc(CSc2nnnn2-c2ccc(F)cc2)n1	2.8	-0.7	-1.0	0.7	23095*	12.3	18.9
COC(=O)c1ccc(Sc2ccccc2NS(=O)(=O)c2ccc(OC)cc2)nc1	19.6	-1.5	-23.7	-7.9	9593	11.8	2.3
COc1ccc(C=NNC(=O)C(O)(c2ccccc2)c2ccccc2)cc1OC	5.4	/	/	0.7	/	-1.0	13.5
COc1ccc(OCC(O)CNC(=O)c2ccccc2C(=O)O)cc1 (centres undefined)	0.6	-4.6	-5.9	-2.9	4385	/	/
COc1ccc(N2C(=O)NC(NS(=O)(=O)c3ccc(NC(C)=O)cc3)(C(F)(F)F)C2=O)cc1 (centres undefined)	0.3	1.6	-5.9	-1.0	5304	3.8	0.5
CC(C)(C)P(=O)(CO)c1ccccc1 (centres undefined)	3.8	-6.2	-17.4	-1.9	19072*	2.8	-3.6
O=C(CNC(=O)COc1ccccc1)NCc1ccccc1F	3.5	-2.8	-28.0	-0.6	1984	10.7	6.2
